Compound activity (PubChem BioAssay)
PV pol inh: poliovirus RdRp elongation inhibitors, primary screen, biochemical, fluorescence polarization, total intensity. Genome polyprotein (Poliovirus type 1 (strain Mahoney)), P03300. 0.66% of 150,000 active. % elongation, % (compound at 16.7 µg/mL). AID 588519, 2011. poliovirus polymerase elongation; hits give low values; in the data active = % elongation below about 90%; also: some results filed as inactive read as strong as hits
Target sequence (P03300 1749-2209 limits assumed): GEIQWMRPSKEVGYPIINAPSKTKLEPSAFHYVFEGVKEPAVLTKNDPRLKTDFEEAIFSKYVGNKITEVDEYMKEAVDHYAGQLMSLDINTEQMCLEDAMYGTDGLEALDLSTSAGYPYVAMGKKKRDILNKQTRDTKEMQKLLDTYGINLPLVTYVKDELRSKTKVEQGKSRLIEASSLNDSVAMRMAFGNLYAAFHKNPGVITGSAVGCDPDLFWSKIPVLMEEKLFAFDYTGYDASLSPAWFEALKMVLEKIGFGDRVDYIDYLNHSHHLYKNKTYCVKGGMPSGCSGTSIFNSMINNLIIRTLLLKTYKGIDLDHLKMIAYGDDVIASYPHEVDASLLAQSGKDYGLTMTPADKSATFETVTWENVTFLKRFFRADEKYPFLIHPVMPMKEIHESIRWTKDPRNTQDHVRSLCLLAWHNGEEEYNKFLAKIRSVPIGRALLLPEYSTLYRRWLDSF
PV pol inh intensity: second read-out of PV pol inh, no call of its own (marks repeat the call); % elongation; measured here: total intensity read-out; formula for this scale not given here;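 total fluorescence in place of polarization; lower means less elongation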
Numbers without * were called inactive. An excerpt; the hit share may differ from the screen's.

SMILES	PV pol inh	PV pol inh intensity
CCOc1ccccc1NC(=O)CN1C(=O)C(=O)c2ccccc21	106	104
CCCN(CCC)C(=O)C1CCCN(S(=O)(=O)c2ccc3c(c2)oc(=O)n3C)C1 (stereo not given)	110	110
CCCN(CCC)c1cc(C)nc2nc(-c3ccc(Cl)cc3)nn12	111	107
CCCCNc1nc(Oc2ccc(OCC(N)=O)nn2)nc(N2CCOCC2)n1	109	94
COC(=O)c1c(-c2ccccc2)c(-c2ccccc2)nn(C)c1=O	108	107
CCN1CCN(c2oc(-c3ccc(COc4ccc(OC)cc4)o3)nc2C#N)CC1	105	105
COc1ccc(NC(=O)c2ccc3c(c2)N(Cc2cccc(Cl)c2)C(=O)c2ccccc2S3(=O)=O)cc1Cl	104	107
Fc1ccc(-c2cc(-c3ccc(F)cc3)c3c(n2)-c2cc(F)ccc2OC3)cc1	106	104
O=C(NCc1ccc(Cl)cc1)C1CCN(S(=O)(=O)c2ccc3c(c2)CCCN3C(=O)C2CCC2)CC1	115	115
COc1ccc(C(=O)NCCSc2c[nH]c3ccccc23)cc1OC	107	110
CC(CCCc1ccccc1)NC(=O)c1nn(-c2ccc(Cl)cc2)nc1CO (stereo not given)	107	102
O=C(COCc1cc(-c2ccc3c(c2)OCO3)on1)N1CCN(c2cccc(C(F)(F)F)c2)CC1	103	101
CCCCOc1ccc(CNC(=O)c2cccc(NC(=O)N3CCSc4ncccc43)c2)cc1	108	108
CCc1ccc(CNC(=O)c2ccc(CS(=O)(=O)Cc3cccc(C)c3)o2)cc1	113	106
CCOc1ccc(NC(=O)Nc2cc3c(cc2N2CCCCC2)n(C)c(=O)n3C)cc1	109	103
CN(C)c1ccc(NC(=O)CC(NCc2cccnc2)C(=O)O)cc1 (stereo not given)	103	109
COc1ccc(C(=O)c2oc3ccccc3c2NC(=O)COc2ccc(C)cc2)cc1	102	107
Cc1ccc(S(=O)(=O)c2nc(-c3ccccc3Cl)oc2N2CCCCCC2)cc1	101	102
Cc1ccc(N(C)C(=O)c2cc(S(=O)(=O)N3CCOCC3)cn2C)cc1	101	97
O=C(Nc1nnc(S(=O)(=O)N2CCCCC2)s1)c1ccc(Cl)cc1	103	106
COC(=O)c1ccccc1NC(=O)c1nn(-c2ccc(OC)cc2)c(=O)c2c1c1ccccc1n2C	109	107
CCOc1ccc(/C=C/c2nc(C#N)c(NC3CCCCC3)o2)cc1	108	115
CC(C)(C)NS(=O)(=O)c1ccc2nc(NC(=O)c3cccnc3)sc2c1	110	109
Cc1ccc(S(=O)(=O)C(CNC(=O)COc2ccccc2)c2cccs2)cc1 (stereo not given)	90	73
COc1ccccc1CCNC(=O)CCc1c(C)c2cc3c(C)coc3c(C)c2oc1=O	111	108

Next part:
SMILES	PV pol inh	PV pol inh intensity
COc1ccc(-c2oc3ncn4nc(-c5ccccc5C)nc4c3c2-c2ccc(OC)cc2)cc1	106	108
COc1cccc(C(=O)Nc2ccc(C(=O)OCc3cc(=O)n4nc(C5CC5)sc4n3)cc2)c1	109	114
COC(=O)c1sc(S(=O)(=O)N2CCN(c3ccc(OC)cc3)CC2)c(C(=O)OC)c1C	108	100
NC(=O)C1CCN(C(=O)c2ccc3c(c2)N(Cc2cccc(Cl)c2)C(=O)c2ccccc2S3=O)CC1 (stereo not given)	101	105
Cc1ccc(C)c(Cn2c(=O)n(C(C)C)c(=O)c3oc4ccccc4c32)c1	106	110
CCn1cnc2c(=O)oc3ccc(S(=O)(=O)Nc4ccc(OC)cc4)cc3c21	106	107
COc1ccc(S(=O)(=O)c2c(O)c3ccc(C(=O)NCc4ccc(Cl)cc4)cc3[nH]c2=O)cc1	106	112
COc1cc2c(cc1NC(=O)COc1ccc(Br)c(C)c1)oc1ccccc12	103	107
CC(C)CC(=O)NC1(C(F)(F)F)C(=O)Nc2c1c(=O)[nH]c(=O)n2-c1ccccc1 (stereo not given)	101	95
Cc1ccc(C)c(CN2C(=O)c3ccccc3S(=O)c3ccc(C(=O)NCCc4ccc(Cl)cc4)cc32)c1 (stereo not given)	102	101
Cc1ccc(-c2cc(C(=O)Nc3c(C(=O)c4ccc(C)c(F)c4)oc4ccccc34)no2)cc1	106	107
Cc1cccc(OCC(=O)Nc2ccccc2OCc2cc(=O)n3cc(C)ccc3n2)c1	113	118
CCCCNC(=O)c1ccc(-c2nc(CS(=O)(=O)c3ccc(C)cc3)c(C)o2)cc1	107	108
CCOC(=O)c1c(C)n(-c2ccccc2)c2ccc(OC(=O)COc3ccccc3)cc12	107	110
Cn1c(SCc2ccc(F)cc2)nc2c([nH]c3ccccc32)c1=O	100	107
Cc1cc(C)c2nc(NC(=O)c3ccc(S(=O)(=O)N4CCC(C)CC4)cc3)sc2c1	113	115
CC(C)N(Cc1ccccc1)C(=O)CCS(=O)(=O)c1cc2c(cc1Cl)NC(=O)CO2	111	106
CCOC(=O)c1c(C)sc(-c2c(-c3ccc(OC)c(F)c3)[nH]c3c2c(=O)[nH]c(=O)n3C)c1O	154	159
Nc1ccc(S(=O)(=O)NC2(C(F)(F)F)NC(=O)N(c3cccc(Cl)c3)C2=O)cc1 (stereo not given)	100	96
CC1CCc2nc(NC(=O)COc3ccc(C(C)(C)C)cc3)sc2C1 (stereo not given)	103	109
Cc1ccc(CNS(=O)(=O)c2ccc(N3CCCCS3(=O)=O)cc2)cc1	110	111
CCc1ccccc1S(=O)(=O)Cc1ccc(C(=O)NCCc2ccc(Cl)cc2)o1	107	108
COc1ccccc1C(=O)NCC1(N2CCN(C)CC2)CCCCC1	108	111
CCc1ccc2ncc3c(-c4ccc(F)cc4)nn(CC(=O)NCc4ccccc4)c3c2c1	103	106
CCOC(=O)c1cnc2ccc(C)cc2c1NCCc1ccc(OC)c(OC)c1	103	98

(more compounds)
SMILES	PV pol inh	PV pol inh intensity
N#Cc1c(-c2ccccc2)cc(-c2ccccc2)nc1SCC(O)CS(=O)(=O)Cc1ccccc1 (stereo not given)	80*	80*
COc1ccc(Cl)cc1NC(=O)c1nn(C)c2c1CS(=O)(=O)c1ccccc1-2	105	103
Cc1c2cnn(-c3ccccc3)c(=O)c2c(C)n1CC(=O)NCc1ccc(Cl)cc1	109	113
CC(C)CC(=O)Nc1cccc(-c2cn3cccnc3n2)c1	108	113
CCCc1cc(N2CCN(c3cc(Cl)ccc3C)CC2)n2cnnc2n1	108	104
CCc1ccc(C2=CC(c3cccc(Br)c3)n3nnnc3N2)cc1 (stereo not given)	109	109
CCCn1c(=N)c(C(=O)NCC2CCCO2)cc2c(=O)n3cc(C)ccc3nc21 (stereo not given)	110	111
CCOC(=O)c1ccccc1NC(=O)CCOc1ccccc1	103	108
COc1ccc(C(=O)Nc2cccc(C(=O)OCc3cc(=O)n4c5c(sc4n3)CCCC5)c2)cc1	104	111
CC(C)c1ccc(OCC(=O)N2CCN(CCc3ccccn3)CC2)cc1	108	111
Cc1c(Cl)cccc1-n1ncc(C(=O)N2CCOCC2)c1C1CCN(C(=O)OC(C)(C)C)CC1	108	112
COc1ccc(S(=O)(=O)Nc2cc(-c3cn4ccccc4n3)ccc2C)cc1	108	99
COc1cc(C(=O)Nc2cccc(OCc3cc(=O)n4cc(C)sc4n3)c2)cc(OC)c1OC	106	107
CCCCN(Cc1cc2ccccc2[nH]c1=O)C(=O)c1cccc(Cl)c1	124	122
COC(=O)C(NC(=O)CCc1c(C)nc2cc(-c3cccc(F)c3)nn2c1C)C(C)C (stereo not given)	106	106
CC1CCN(S(=O)(=O)c2cc3c4c(c2)CC(=O)N4CCC3)CC1	107	113
Cc1sc2c(c1C)c(=O)n(-c1ccc(Cl)cc1)c(=O)n2CC(=O)c1ccccc1	108	111
O=C(CCC(=O)c1ccc(F)cc1)Nc1ccc(Cl)cc1	105	116
CC1CCN(S(=O)(=O)c2ccc3c(c2)N(CC(=O)NC(C)C)C(=O)CS3)CC1	104	108
CCOc1cc2c(cc1OCC)C(CC(=O)O)N(C(=O)Nc1ccccc1C(F)(F)F)CC2 (stereo not given)	98	102
CCOC(=O)Cn1c(=O)n(C2CCCCC2)c2nc(-c3ccc(CC)cc3)nc(C(N)=O)c21	103	104
CCOc1ccc(NC(=O)c2cc(-c3ccc(C)c(F)c3)on2)c([N+](=O)[O-])c1	112	109
COc1ccc(Nc2nnc(-c3cc4c(ccc5ccccc54)oc3=O)s2)cc1	103	112
CC(C)CN(CCCNC(=O)c1cc(=O)[nH]c2ccc(S(=O)(=O)N3CCCCCC3)cc12)CC(C)C	111	106
Cc1oc(-c2ccc(Cl)cc2)nc1CN1CCCC(C(=O)NCCc2ccc(Cl)cc2)C1 (stereo not given)	106	105

Carrying on:
SMILES	PV pol inh	PV pol inh intensity
COc1ccc(OCc2nc3ccccc3n2Cc2ccc(C(C)(C)C)cc2)cc1	109	111
CCn1c(=O)c(=O)n(CC)c2cc(N3CCCCC3)c(NC(=O)c3ccccc3OC)cc21	107	110
CCOCCCNC(=O)CCC(=O)NNc1nc2ccccc2c2nc(-c3ccccc3)nn12	104	107
Cn1c(=O)c(=O)n(C)c2cc(N3CCCC3)c(NC(=O)c3ccccc3Cl)cc21	105	110
COc1ccc(-c2noc(-c3ccc(N4CCOCC4)c([N+](=O)[O-])c3)n2)cc1OC	115	114
CCN(CC)S(=O)(=O)c1ccc2c(c1)N(CC(=O)N1CCN(c3cccc(C)c3C)CC1)C(=O)CO2	107	98
Cc1nn(-c2ccccc2)c2c1N(CCCC(=O)NC(C)c1ccccc1)C(=O)CS2 (stereo not given)	108	109
CCc1ccc(NC(=O)CSC2=Nc3ccccc3C3=NC(CCC(=O)NCc4ccccc4)C(=O)N23)cc1 (stereo not given)	109	102
COc1ccc(C)cc1NC(=O)C(=O)NCC1(c2ccccc2)CCCC1	109	108
COc1ccc(-c2nc(CN3CCC(C(=O)NCc4ccc(F)cc4)CC3)c(C)o2)cc1OC	103	104
COC(=O)c1ccccc1NC(=O)c1cc2cc(C)ccc2n1C	102	92
Cc1cc(C)cc(NC(=O)CN(C)S(=O)(=O)c2ccc3c(c2)CCC(=O)N3)c1	108	111
COc1ccc(CCNC(=O)CCc2c(C)c3ccc(O)c(C)c3oc2=O)cc1	107	96
O=C(COc1ccccc1F)Nc1c(C(=O)Nc2cccc(F)c2)oc2ccccc12	104	106
CCC(=O)N1CCc2cc(CNS(=O)(=O)c3cc(Cl)ccc3OC)ccc21	107	101
O=C(Nc1ccc(Cl)c(C(F)(F)F)c1)C(Cc1ccccc1)NS(=O)(=O)c1ccc(Br)s1 (stereo not given)	102	105
Cc1ccc2c(=O)cc(C(=O)Nc3sc4c(c3C(=O)NCc3ccco3)CCCC4)oc2c1C	105	111
Cc1ccc(S(=O)(=O)NC2(C(F)(F)F)C(=O)Nc3c2c(=O)[nH]c(=O)n3-c2ccccc2)cc1 (stereo not given)	107	109
Cc1ccc(S(=O)(=O)N2CCCc3cc(NS(=O)(=O)c4cc(F)ccc4F)ccc32)cc1	115	112
Cc1ccc(NC(=O)C(C)Sc2nc3c(c(=O)[nH]2)CCCC3)cc1Cl (stereo not given)	109	109
COc1ccc(Cl)cc1NC(=O)C(C)N1Cc2ccccc2C1=O (stereo not given)	112	114
Cc1ccc(C)c(N2CCN(C(=O)c3cc4cc5ccc(C)cc5nc4o3)CC2)c1	113	114
CCOC(=O)c1c(NC(=O)c2cc(=O)c3cc(Cl)ccc3o2)sc(C)c1C	113	109
Cc1ccc(C)c(NC(=O)C(=O)NCCc2csc3nc(-c4ccccc4C)nn23)c1	106	101
CCn1nc(-c2ccccc2)c(-c2ccccc2)c(C(=O)Nc2ccccc2C#N)c1=O	107	105

19 of these compounds in a different format.
Results follow in this order: PV pol inh | PV pol inh intensity
- Cc1nn(-c2ccccc2)c2c1N(CCCC(=O)NC(C)c1ccccc1)C(=O)CS2 (stereo not given)
    108 | 109
- CCc1ccc(NC(=O)CSC2=Nc3ccccc3C3=NC(CCC(=O)NCc4ccccc4)C(=O)N23)cc1 (stereo not given)
    109 | 102
- COc1ccc(C)cc1NC(=O)C(=O)NCC1(c2ccccc2)CCCC1
    109 | 108
- COc1ccc(-c2nc(CN3CCC(C(=O)NCc4ccc(F)cc4)CC3)c(C)o2)cc1OC
    103 | 104
- COC(=O)c1ccccc1NC(=O)c1cc2cc(C)ccc2n1C
    102 | 92
- Cc1cc(C)cc(NC(=O)CN(C)S(=O)(=O)c2ccc3c(c2)CCC(=O)N3)c1
    108 | 111
- COc1ccc(CCNC(=O)CCc2c(C)c3ccc(O)c(C)c3oc2=O)cc1
    107 | 96
- O=C(COc1ccccc1F)Nc1c(C(=O)Nc2cccc(F)c2)oc2ccccc12
    104 | 106
- CCC(=O)N1CCc2cc(CNS(=O)(=O)c3cc(Cl)ccc3OC)ccc21
    107 | 101
- O=C(Nc1ccc(Cl)c(C(F)(F)F)c1)C(Cc1ccccc1)NS(=O)(=O)c1ccc(Br)s1 (stereo not given)
    102 | 105
- Cc1ccc2c(=O)cc(C(=O)Nc3sc4c(c3C(=O)NCc3ccco3)CCCC4)oc2c1C
    105 | 111
- Cc1ccc(S(=O)(=O)NC2(C(F)(F)F)C(=O)Nc3c2c(=O)[nH]c(=O)n3-c2ccccc2)cc1 (stereo not given)
    107 | 109
- Cc1ccc(S(=O)(=O)N2CCCc3cc(NS(=O)(=O)c4cc(F)ccc4F)ccc32)cc1
    115 | 112
- Cc1ccc(NC(=O)C(C)Sc2nc3c(c(=O)[nH]2)CCCC3)cc1Cl (stereo not given)
    109 | 109
- COc1ccc(Cl)cc1NC(=O)C(C)N1Cc2ccccc2C1=O (stereo not given)
    112 | 114
- Cc1ccc(C)c(N2CCN(C(=O)c3cc4cc5ccc(C)cc5nc4o3)CC2)c1
    113 | 114
- CCOC(=O)c1c(NC(=O)c2cc(=O)c3cc(Cl)ccc3o2)sc(C)c1C
    113 | 109
- Cc1ccc(C)c(NC(=O)C(=O)NCCc2csc3nc(-c4ccccc4C)nn23)c1
    106 | 101
- CCn1nc(-c2ccccc2)c(-c2ccccc2)c(C(=O)Nc2ccccc2C#N)c1=O
    107 | 105
